Assay outcomes deposited in PubChem BioAssay by ICCB-Longwood Screening Facility, Harvard Medical School.
GIV-Gai inh = blocks GIV peptide binding to rat Galpha-i3; Galpha-i3/FITC-GIV peptide fluorescence polarization, 90 min; hits give low values; scaled: aluminum fluoride 0%, vehicle 100%; percent of control (FP), % (no concentration beside the values); 210,000 compounds, 0.42% hits; AID 1224905;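 active = replicate mean at 85% of control or lower, very high polarization wells dropped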;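 note: wells of about 15 µL received 100 nL stock; the first replicate is given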
Target sequence (P08753 whole entry, looked up): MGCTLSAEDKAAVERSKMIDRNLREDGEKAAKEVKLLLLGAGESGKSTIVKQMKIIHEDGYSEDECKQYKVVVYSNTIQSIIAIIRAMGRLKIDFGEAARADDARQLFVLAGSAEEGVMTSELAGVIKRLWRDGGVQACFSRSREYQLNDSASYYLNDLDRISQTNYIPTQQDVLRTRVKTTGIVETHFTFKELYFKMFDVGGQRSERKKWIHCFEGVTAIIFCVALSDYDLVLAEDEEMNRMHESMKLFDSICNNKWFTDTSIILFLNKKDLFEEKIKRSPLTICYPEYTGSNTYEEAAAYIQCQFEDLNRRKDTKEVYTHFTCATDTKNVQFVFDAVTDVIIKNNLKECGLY
Sa growth inh = inhibitors of Staphylococcus aureus growth at 42 °C; S. aureus RN4220 growth, OD600, 20 h; hits give low values; relative growth, % (no concentration beside the values); 170,000 compounds, 0.53% hits; AID 720641;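 active = growth at 42 °C up to 50% and 20 or more points under that at 30 °C, or under 10% at both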;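 note: 300 nL library stock went into each well; scaled to the means of positive and negative controls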
HCMV NEC inh = disrupts HCMV UL50-UL53 complex binding; inhibition, % (concentration not given with the values); 190,000 compounds, 0.15% hits; HTRF UL50-UL53 interaction, normalized percent inhibition; AID 1918969;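 active = both replicates at 50% or more, plus weaker picks with an unusually low signal ratio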;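 note: stock transfer was 100 nL into about 20 µL; 0% = negative control wells and 100% = wells with untagged competitor protein; inactives centre near -12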
Sa growth inh second temp = further read-out of Sa growth inh, marked with its call; relative growth, %; measured here: growth at 30 °C;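 optical density after 20 h as mean of two plates; 100% = untreated growth and lower means inhibition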
* marks the source's active call; other numbers are inactive results; · = not tested or not shown; & = joins results of further samples. Hits appear at their usual frequency; 0.83% or so of the library scored in one or more.

SMILES	GIV-Gai inh	Sa growth inh	Sa growth inh second temp	HCMV NEC inh
COc1cc(Cl)c(C)cc1NC(=O)COC(=O)C(C)C	·	80	92	-15
CCS(=O)(=O)C1=NN2C(=N)/C(=C\c3ccc(OC)cc3)C(=O)N=C2S1	103	96	93	-25
COCCN(Cc1nc2ccccc2c(=O)[nH]1)C(=O)C1=NN(c2cccc(C)c2)C(=O)CC1	·	102	95	-12
CN1CCc2c(sc3c2CN(C(=O)Nc2ccc4c(c2)OCCO4)C(c2ccc(Cl)cc2)c2cccn2-3)C1 (stereo not given)	104	·	·	2
COC(=O)C1=C(N)OC2=C(C(=O)CC(c3ccccc3)C2)C1c1ccc(Cl)c([N+](=O)[O-])c1 (stereo not given)	107	·	·	-6
COc1cc(Cl)c(C)cc1-n1cc[nH]c(=O)c1=O	105	·	·	-2
Cc1cc(C(=O)Nc2ccc(C)c(C)c2)n[nH]1	95	·	·	-15
O=C1c2ccccc2C2=Nc3ccccc3SC(c3ccc(F)cc3)C12 (stereo not given)	104	93	71	·
CC(=NC1CC1)c1c(C)[nH]n(-c2nc3ccccc3s2)c1=O	·	108	90	-5
CCCC(=O)Nc1ccccc1NC(=O)CCC	96	114	80	-11
COc1cccc2c1oc(=O)c1c(NC(C)=O)nc(-c3cccs3)nc12	100	92	91	·
O=C(NCCc1ccco1)c1ccc(Cn2c(SCc3ccccc3)nc3cccnc32)cc1	107	110	94	7
CCN(CC)C(=O)NCC12CC3CC(CC(C3)C1)C2	104	110	94	1
O=C(c1ccc(Nc2nn3c(=O)c4ccccc4nc3s2)cc1)N1CCc2ccccc2C1	101	·	·	56*
Cc1cc(C)n2ncc(C(=O)N(C)Cc3ccccc3)c2n1	104	98	86	-12
CC1CCN(C(=O)C2CCN(S(=O)(=O)c3cccc4cccnc34)CC2)CC1	99	·	·	-18
N/C(COc1ccc(-c2nnco2)cc1)=N\OC(=O)c1ccc(Cl)cc1	100	89	93	-17
CCOC(=O)N1CCN(c2nc(N)c(C#N)c(CC#N)c2C#N)CC1	·	87	90	-12
COc1ccc(C2=NOC(C(=O)NC(C)C)C2)cc1OC (stereo not given)	100	97	91	-11
Clc1ccc2c(c1)CCN2	106	101	89	-11
Cc1ccc(N2CC(C(=O)Nc3cc4c(cc3N3CCCCC3)n(C)c(=O)c(=O)n4C)CC2=O)cc1 (stereo not given)	97	·	·	-10
C=CCn1c(=O)c2ccccc2n2c(SCC(=O)N3CCc4ccccc43)nnc12	·	108	95	13
Cc1ccc(SCc2nccn2Cc2ccc(Cl)cc2)cc1	107	94	36	-33
COc1ccc(C2C(=O)N(C3CCCCCC3)CC(=O)N2CCc2ccccc2)cc1 (stereo not given)	109	84	99	·
CC(=O)N(C)S(=O)(=O)c1ccc(C)cc1	·	100	91	-3

Profiles, looked up by structure. Screens in order: GIV-Gai inh | Sa growth inh | Sa growth inh second temp | HCMV NEC inh
COc1ccc(C2=NOC(C(=O)NC(C)C)C2)cc1OC (stereo not given) as listed: 100 | 97 | 91 | -11
CC1CCN(C(=O)C2CCN(S(=O)(=O)c3cccc4cccnc34)CC2)CC1 as listed: 99 | · | · | -18

The listing picks up, starting 7 compounds before the break.
SMILES	GIV-Gai inh	Sa growth inh	Sa growth inh second temp	HCMV NEC inh
COc1ccc(C2=NOC(C(=O)NC(C)C)C2)cc1OC (stereo not given)	100	97	91	-11
Clc1ccc2c(c1)CCN2	106	101	89	-11
Cc1ccc(N2CC(C(=O)Nc3cc4c(cc3N3CCCCC3)n(C)c(=O)c(=O)n4C)CC2=O)cc1 (stereo not given)	97	·	·	-10
C=CCn1c(=O)c2ccccc2n2c(SCC(=O)N3CCc4ccccc43)nnc12	·	108	95	13
Cc1ccc(SCc2nccn2Cc2ccc(Cl)cc2)cc1	107	94	36	-33
COc1ccc(C2C(=O)N(C3CCCCCC3)CC(=O)N2CCc2ccccc2)cc1 (stereo not given)	109	84	99	·
CC(=O)N(C)S(=O)(=O)c1ccc(C)cc1	·	100	91	-3
Cc1cc(C(=O)Nc2ccc(C(C)C)cc2)c2c(C)nn(-c3ccccc3)c2n1	105	109	97	·
COc1ccc(Cl)cc1S(=O)(=O)N1CCN(CC(=O)Nc2ccccc2C(F)(F)F)CC1	95	105	88	·
O=C(O)CC1(CC2=NS(=O)(=O)c3ccccc3N2)CCCC1	100	116	94	·
CCOc1cc(C(=O)Nc2ccc3nc(N4CCN(CC)CC4)cc(C)c3c2)cc(OCC)c1OCC	97	111	91	-5
Cc1c(NC(=O)C(C)n2nc(C(=O)O)c3ccccc3c2=O)c(=O)n(-c2ccccc2)n1C (stereo not given)	·	92	95	-12
CCC(=O)Nc1cc(-c2ccccc2)nn(CC(=O)Nc2cccc(CC)c2)c1=O	103	·	·	-10
N#CCn1c(CN2CCCCC2C(N)=O)nc2scc(-c3ccccc3)c2c1=O (stereo not given)	·	103	100	9
COc1ccc(C2C3CCc4ccccc4C3=NN2C(=O)c2cccs2)cc1 (stereo not given)	103	90	95	23
CCCn1c(=O)c(C#N)nn(-c2ccc(OC)cc2)c1=O	105	96	87	-119
CCCCSc1ncnc2c1c(-c1ccccc1)cn2-c1cccc(F)c1	106	97	111	1
COc1ccc(Nc2nc(-c3ccncc3)nc3ccccc23)cc1	102	84	91	-14
Cc1ccc(-c2nn3c(C)nnc3s2)cc1N	103	94	95	-1
N#C/C(N)=C(/C#N)N=Cc1cccc(Cl)c1	106	92	57	-19
OC(Cc1nc2ccccc2[nH]1)c1ccccc1Cl (stereo not given)	106	103	80	3
Cc1cccn2c(=O)c(C(=O)NCC3CCCO3)c(O)nc12 (stereo not given)	110	·	·	2
CCN(CC)S(=O)(=O)c1ccc(O)c(C(=O)OCC(=O)NC23CC4CC(CC(C4)C2)C3)c1	·	104	89	-23
COc1ccc(CNC(=O)C2CCN(c3nnc(-n4cccc4CNc4ccc(C)cc4)s3)CC2)c(OC)c1	101	104	93	-10
O=C(NC1=NCCS1)c1cc2ccccc2o1	99	92	96	·
CCOc1ccc(S(=O)(=O)N2CCCC(C(=O)N3CCN(CC)CC3)C2)cc1Cl (stereo not given)	98	101	93	14
CCOc1ccc(-c2ccc(SCc3nc(-c4cccc(Br)c4)no3)nn2)cc1	105	·	·	-11
CC(Cn1cnc2c([nH]c3ccc(F)cc32)c1=O)c1ccccc1 (stereo not given)	102	·	·	-22
CC1Cn2c(C(=O)NCc3ccccc3)cc3cccc(c32)S1 (stereo not given)	106	98	91	-11
CCOc1ccnc2sc(C(=O)c3cccnc3)c(N)c12	98	105	77	-80
COc1ccccc1-c1nnc(SCC(=O)Nc2cccc3nsnc23)n1-c1ccccc1	·	95	63	-31
O=C(Nc1ccccc1C(=O)NCCCO)c1ccccc1	100	94	80	-22
The list goes on.
SMILES	GIV-Gai inh	Sa growth inh	Sa growth inh second temp	HCMV NEC inh
O=C(CN(Cc1ccco1)C(=O)Cn1cnnn1)Nc1ccc(Cl)c(C(F)(F)F)c1	·	92	96	9
COc1ccc(CCNC(=O)Cn2c(-n3nc(C)cc3C)nc(C)c(C)c2=O)cc1OC	105	107	94	14
Cc1cc(Nc2cccc(C(F)(F)F)c2)nc2ccc(NC(=O)c3ccccn3)cc12	100	90	76	·
COc1ccc(-c2csc(NC(=O)Cc3cccc4ccccc34)c2C(=O)O)cc1	·	26	3	-17
Cc1ccccc1-n1c(=O)c2ccccc2n(Cc2ccc(F)cc2)c1=O	103	99	87	-8
CC(OC(=O)c1ccc(Br)o1)C(=O)NCC1CCCCC1 (stereo not given)	·	103	87	7
O=C(O)c1nccnc1C(=O)N1CCc2ccccc2C1	107	96	88	-3
CC1=C/C(=N/NC(=O)c2ccc(CSc3nncn3C)cc2)CC(C)(C)C1	·	77	94	-31
COc1ccc(C2CC(=O)N3CN(CCC(C)C)CSC3=C2C#N)cc1OC (stereo not given)	99	105	84	·
Cc1cc(C)n2nc3nc(N4CCC(C)CC4)nc(-c4ccccc4)c3c2n1	103&111	83	89	-11&-11
Cc1nc(NC(=O)C2CC3CCCC(C2)C3=O)sc1C (stereo not given)	101	109	99	-3
O=C(NCCN1CCN(Cc2ccccc2Cl)CC1)C(=O)Nc1ccc(Br)cc1	98	·	·	-2
Cc1nc(N2CCN(c3ccccn3)CC2)nc2oc(-c3ccccc3)nc12	93	·	·	-16
Cc1ccn2c(Nc3ccccc3C)c(-c3cccnc3)nc2c1	102	103	80	-13
CCCc1nn2c(=O)cc(O)nc2s1	104	97	84	-13
O=C1C2C3C=CC(CC3)C2C(=O)N1c1ccc(F)cc1 (stereo not given)	99	·	·	-22
O=C(NCCc1csc(-c2cccnc2)n1)c1ccc(F)c(F)c1	105	104	103	·
CCCc1c(Cc2c(F)cccc2Cl)c(=O)oc2cc(O)ccc12	103	28	19	-16
Cc1ccc(OC(=O)CSc2nnc(-c3cccs3)o2)cc1	100	89	84	-12
CC1CN/C(=C/C(=O)/C=C/c2ccccc2)C(=O)N1 (stereo not given)	104	83	80	·
Cc1nnc(NC(=O)c2nc(SC(C)C)ncc2Cl)s1	101	87	81	-36
CCc1nnc(SCc2nc(-c3ccc(OC)cc3)oc2C)c2cc3sccc3n12	107	104	92	·
CCNS(=O)(=O)c1ccc2c3c(cccc13)C(=O)N2	·	90	88	-68
O=C(CSc1ccccc1)N1CCc2c([nH]c3ccccc23)C1c1ccc(Cl)cc1 (stereo not given)	102	93	97	·
COc1ccc(-c2nc(SCC(=O)Oc3ccccc3)n3[nH]c(=O)cc3n2)cc1	101	·	·	-24
